# PrP 5UTR inh: inhibition of PrP 5' UTR reporter expression; cell-based PrP 5' UTR mRNA reporter, plate reader; inhibition, % (no concentration beside the values); 0.35% of 340,000 active;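 active = every replicate at 50% or more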;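 note: 0 = median of the neutral control wells; tested in H4 reporter cells; numbers are from one replicate; inactives centre near -14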
# Mtb hypoxia rep: PubChem AID 1159583; fluorescence inhibition, % (concentration not given with the values); M. tuberculosis hypoxia-regulated fluorescent reporter, fluorescence; 0.1% of 300,000 active;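 active = 35 to 45% if threefold the growth effect, above 45% if 1.5-fold the growth effect; inactive = the rest, general growth blockers included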;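 note: wells of about 50 µL received 100 nL stock; 0% = vehicle wells and 100% = reference inhibitor wells; whole bacteria with a GFP reporter of the hypoxia response; strong numbers were not always called active; many hits fall short of the cut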
# BJeLR lethal: MLPCN primary cell-based screen for lethality selective to Ras in HRASV12 cells. 0.17% of 300,000 active. BJeLR (HRASV12) viability, CellTiter-Glo ATP luminescence, 48 h; reference of the scale not given here. inhibition, % (no concentration beside the values);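 active = replicate mean above 50%; inconclusive = above 50% but judged a plate artefact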;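 note: 50 nL library stock added to about 25 µL; numbers are from one replicate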
# Autofluor counter: counter-screen for toxin protease inhibitors: compound fluorescence; compound autofluorescence counterscreen, microsphere flow cytometry; active compounds read high; fluorescence intensity (test concentration not listed); 3.1% of 360,000 active;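 active = at least 3 SD above the mean of all compounds, about 16000 in these data; inconclusive = too few beads counted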;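 note: 100 nL of 1 mM stock went into each well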
# RN4220 kill: growth inhibition of S. aureus RN4220, primary screen, OD600. 16 h. inhibition, % (concentration not given with the values). 0.33% of 330,000 active;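 active = z-score of -3 or lower and OD600 up to 0.18 on both plates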;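 note: plate controls were untreated cells for no effect and reference antibiotic for full effect; stock transfer was 100 nL into about 80 µL; one replicate is shown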
# Sa ugtP lethal: growth inhibition of ugtP-null S. aureus, primary screen, RN4220 ugtP deletion, OD600; 16 h; some inactives read as strong as hits; growth inhibition, % (concentration not given with the values); 0.54% of 330,000 active; AID 1259309, 2017;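 active = z-score under -3 and OD600 up to 0.15 on both plates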;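 note: plate controls were untreated wells for no effect and antibiotic for full effect; wells of about 80 µL received 100 nL stock; the first replicate is given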
# Mtb hypoxia rep growth: recorded beside Mtb hypoxia rep, whose call it bears; growth inhibition, %; measured here: M. tuberculosis growth (absorbance);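 0% = vehicle and 100% = reference antibiotic; read after six days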
# * marks the source's active call; other numbers are inactive results; ? = inconclusive; . = not tested or not shown.
SMILES,PrP 5UTR inh,Mtb hypoxia rep,Mtb hypoxia rep growth,BJeLR lethal,Autofluor counter,RN4220 kill,Sa ugtP lethal
O=C(NNC(=S)Nc1ccccc1C(F)(F)F)c1ccc(Br)o1,-48,17,23,-1,6074,5.6,-3
Cc1cccc2cc(CN(C(=O)c3cccs3)c3ccccc3)c(=O)[nH]c12,-11,1,-4,-11,2690,5.6,1
Cc1ccc(SCc2cn3cccnc3n2)cc1,-13,.,.,-7,2652,-0.1,-2
O=C(CSc1nc(-c2ccccc2)cc(=O)[nH]1)Nc1ccccn1,-7,.,.,-11,5788,3.7,-5
Cc1ccc(S(=O)(=O)N2CCN(C(=O)COC(=O)c3ncc(Cl)c(Cl)c3Cl)CC2)c(C)c1,-8,17,46,.,3772,1.6,-2
CC(C)CNS(=O)(=O)c1cc(C(=O)OCC(=O)c2ccc3c(c2)OCCO3)c(Cl)cc1Cl,-15,11,10,1,2618,-3.1,2
Cc1nc2cc(C(F)(F)F)ccc2n1C1CCN(Cc2nnnn2Cc2cccs2)CC1,-12,-1,13,-4,10814,-2.0,-10
Cc1cc(NC(=O)CCc2ccccc2)c([N+](=O)[O-])cc1C,-13,-6,-7,-10,2529,7.8,7
COc1ccccc1C(=O)N/C(=N/c1nc(C)cc(C)n1)Nc1ccccc1,-6,.,.,0,?,.,.
Cn1cnc2cc(NS(=O)(=O)c3ccc(Br)cc3)ccc21,-27,.,.,10,2573,1.1,1
Cc1ccc(COCC(CC(C)C)N2CCN(C(=O)c3cccc(C(F)(F)F)c3)CCC2=O)cc1 (stereo not given),-27,9,9,2,4462,8.1,-16
COc1cc2c(cc1OC)CN(C(=O)CN1CCN(S(=O)(=O)c3ccccc3Br)CC1)CC2,5,1,9,-4,5649,4.2,-2

# The last 3 entries of the section above open the next one.
SMILES,PrP 5UTR inh,Mtb hypoxia rep,Mtb hypoxia rep growth,BJeLR lethal,Autofluor counter,RN4220 kill,Sa ugtP lethal
Cn1cnc2cc(NS(=O)(=O)c3ccc(Br)cc3)ccc21,-27,.,.,10,2573,1.1,1
Cc1ccc(COCC(CC(C)C)N2CCN(C(=O)c3cccc(C(F)(F)F)c3)CCC2=O)cc1 (stereo not given),-27,9,9,2,4462,8.1,-16
COc1cc2c(cc1OC)CN(C(=O)CN1CCN(S(=O)(=O)c3ccccc3Br)CC1)CC2,5,1,9,-4,5649,4.2,-2
COc1cc(-c2nnc(SCC(=O)Nc3cc(C)on3)n2C)cc(OC)c1O,-5,3,12,22,9840,9.0,-4
O=C(Nc1cc(Cl)ccc1-n1cncn1)c1ccc([N+](=O)[O-])s1,-18,5,17,-2,5878,27,101*
O=C(C1=NN[C@@H]2C(=O)N(c3cccc(F)c3)C(=O)[C@H]12)C(c1ccccc1)c1ccccc1,-9,11,5,-1,2450,-0.1,3
CCOC(=O)C(C)Sc1ncc(-c2ccccc2)cn1 (stereo not given),-36,5,1,3,4825,8.7,5
Cc1c(C)n(-c2ccccc2)c2ncnc(NCCCN(C)C)c12,-9,5,1,6,3362,3.4,10
Cc1cccc(NC(=O)c2ccc(N3C(=O)C4C5C=CC(C6CC56)C4C3=O)cc2)c1 (stereo not given),9,7,11,-6,5972,-2.9,-1
CCOC(=O)CN1C(=O)N[C@@H](c2cccc(F)c2)C(C(=O)OC)=C1C,-20,.,.,-2,4286,.,.
Fc1ccc(/C=N/N2CCCCC2)c(F)c1,-18,.,.,1,3777,.,.
Cc1ccnc(OC(C(=O)O)C(OCCc2ccccc2)(c2ccccc2)c2ccccc2)n1 (stereo not given),-30,-5,4,-3,3719,2.4,-3
Cc1cc(N2CCN(C(=O)c3ccco3)CC2)n2ncc(-c3ccccc3)c2n1,-42,.,.,12,5002,-0.1,-1
O=C(NN=Cc1ccc([N+](=O)[O-])cc1)c1cccs1,.,5,13,.,.,6.5,-2
COc1ccc(S(=O)(=O)N(C)c2ccc(C(=O)NCc3ccco3)cc2)cc1,-16,2,2,-2,3782,2.6,1
COc1ccccc1CNC(=O)C1(C)Oc2cccnc2NC1=O (stereo not given),-22,-7,-19,0,4374,4.7,4
Cc1ccc(NC(=O)Cn2cccc2)cc1Cl,-53,-3,-8,-4,9675,2.6,-1
CN(CC(=O)Nc1ccccc1Br)C(=O)C1CCN(C(=O)c2ccc(Cl)cc2)CC1,-10,7,-3,1,4140,0.0,5
CC(C)NC(=O)c1c(O)c2cccc3c2n(c1=O)CCC3,-71,-2,-1,-4,4509,1.6,3
CC(C)c1ccccc1NCC(=O)N1CCN(Cc2ccccc2)CC1,-7,12,8,1,3926,-0.3,3
COc1ccc(CNC(=O)C(=O)NCCC2CCCCN2S(=O)(=O)c2ccccc2)cc1 (stereo not given),-18,-2,4,-1,5380,0.8,8
Cc1ccc(C)c(NS(=O)(=O)c2cc(C(N)=O)ccc2C)c1,-6,12,3,-13,5167,4.8,0
COc1cc2c(cc1OC)/C(=C/C#N)NC(C)(C)C2,1,.,.,5,3517,.,.
O=C(CCCOc1ccccc1)Nc1cccnc1,-22,.,.,-5,3825,1.0,5
N#Cc1cccc(NC(=O)Nc2cccs2)c1,-39,16,9,-6,3184,4.7,-5
Cc1sc2nc(CSCC(=O)N(CCC#N)c3ccccc3)[nH]c(=O)c2c1C,-9,13,5,-11,4651,2.7,0
CN1/C(=C/C=N/NC(=O)c2ccc([N+](=O)[O-])cc2)C(C)(C)c2ccccc21,8,.,.,-2,2420,.,.

# Single records, as listed above.
# Results for CN(CC(=O)Nc1ccccc1Br)C(=O)C1CCN(C(=O)c2ccc(Cl)cc2)CC1 = PrP 5UTR inh = -10; Mtb hypoxia rep = 7; Mtb hypoxia rep growth = -3; BJeLR lethal = 1; Autofluor counter = 4140; RN4220 kill = 0.0; Sa ugtP lethal = 5
# Results for Cc1ccc(NC(=O)Cn2cccc2)cc1Cl = PrP 5UTR inh = -53; Mtb hypoxia rep = -3; Mtb hypoxia rep growth = -8; BJeLR lethal = -4; Autofluor counter = 9675; RN4220 kill = 2.6; Sa ugtP lethal = -1
# Results for Cc1ccc(C)c(NS(=O)(=O)c2cc(C(N)=O)ccc2C)c1 = PrP 5UTR inh = -6; Mtb hypoxia rep = 12; Mtb hypoxia rep growth = 3; BJeLR lethal = -13; Autofluor counter = 5167; RN4220 kill = 4.8; Sa ugtP lethal = 0

# Following part:
SMILES,PrP 5UTR inh,Mtb hypoxia rep,Mtb hypoxia rep growth,BJeLR lethal,Autofluor counter,RN4220 kill,Sa ugtP lethal
O=C(/C=C/c1ccc(O)c(O)c1)OCCc1ccccc1,-25,.,.,11,5976,.,.
S=C(NC1CCCC1)N1CCN(c2cccc(Cl)c2)CC1,-25,5,6,-3,2020,1.9,-10
O=C(CCn1c(=S)oc2ccccc21)NC1CCCCC1,-23,1,8,6,5132,2.8,8
O=C(NC1CC1)C1=C[C@@H](c2csc3ccccc23)C[C@@H](OCc2ccc(CO)cc2)O1,-24,13,9,0,2884,-12,-3
CC(=O)Nc1ccc(O)cc1[N+](=O)[O-],-25,5,9,-4,3728,3.0,2
OC(CNc1nc(C(F)(F)F)nc2ccccc12)c1ccccc1 (stereo not given),2,6,13,-10,3738,40,21
C[C@]12CCC3[C@@H](CCC4=CC(=O)CC[C@@]43CO)C1CCC2=O (stereo not given in full),-21,3,19,-2,3486,3.0,1
CC(=O)C1=C(C)N(c2ccccc2)C(=O)C1(NS(=O)(=O)c1ccc(N)cc1)C(F)(F)F (stereo not given),-4,9,4,5,3530,7.3,3
CCN1CCN(c2oc(COc3ccc(-c4ccccc4)cc3)nc2C#N)CC1,-18,-7,16,-1,3500,23,9
CCOC(=O)C(Cc1c[nH]c2ccccc12)NC(=O)c1ccco1 (stereo not given),-5,.,.,3,5428,0.3,-4
COc1ccc(C(=O)N/N=C(\c2ccccc2)c2ccccn2)cc1,31,.,.,24,2031,.,.
Cc1cc2nc(CN(C)Cc3c(C(=O)N(C)C)nc4ccc(Cl)cn34)[nH]c2cc1C,-22,5,2,2,2601,4.3,9
COc1ccc(OC)c(S(=O)(=O)N2CCCC(C(=O)NCCc3ccccc3)C2)c1 (stereo not given),-21,9,12,4,5453,4.0,4
COC(=O)C1=C(C)N(C)C(=O)NC1c1cc(Cl)c(O)c(OC)c1 (stereo not given),-54,13,9,-6,5831,9.7,-5
CN1CCC(O)(c2cccs2)C(C(=O)c2cccs2)C1 (stereo not given),0,17,10,4,3022,3.7,13
CC(=O)c1ccc(S(=O)(=O)NCc2cccnc2)cc1,-37,1,-6,8,3678,0.8,-2
Cc1ccnc(NC(=O)Cn2c(=O)oc3cc(S(=O)(=O)N4CCCC4)ccc32)c1,-14,4,-4,1,5276,1.7,3
CCOC(=O)c1oc2c(O)c(O)ccc2c(=O)c1-c1nncn1-c1ccccc1,-9,.,.,2,2496,-0.1,3
CN(CCN1CCOCC1)Cc1nc(-c2cccs2)no1,-10,-1,6,1,4896,1.5,1
COc1ccc([N+](=O)[O-])cc1N(CC(=O)N1CCCCC1)S(C)(=O)=O,-3,11,2,-2,2824,5.2,4
CCOC(=O)c1ccc(S(=O)(=O)N2CCC(C(=O)NCC3CCCCC3)CC2)cc1,-14,0,0,.,8804,1.0,7
CCCc1cc(=O)oc2cc(OCC(=O)Nc3ccc4c(c3)OCCO4)ccc12,-24,.,.,8,4969,-8.8,0
COc1ccc(C2C(C#N)=C(N)N(N(C)C)C3=C2C(=O)CCC3)cc1 (stereo not given),-18,7,3,-15,3857,5.2,11
CCCCC(CC)C(=O)Nc1ccc(Cl)cn1 (stereo not given),-15,.,.,1,21357*,-3.0,-2
CC(C)(C)C(=O)COC(=O)c1cc(-c2ccncc2)nc2ccccc12,5,13,12,0,2112,7.0,3
O=C(Nc1ccccn1)c1cccc(S(=O)(=O)N2CCOCC2)c1,-7,.,.,2,2634,-1.6,8
O=C(c1ccco1)N1N=C(c2ccc(Cl)cc2)CC1c1ccco1 (stereo not given),-5,3,10,-1,5912,1.9,-39
Cc1ccccc1OCC(=O)Nc1ccc(S(=O)(=O)Nc2onc(C)c2C)cc1,9,0,5,-6,3159,2.3,-3
O=C(c1cccnc1)c1cccnc1,0,11,1,5,2491,1.6,12
COc1cc(C(=O)NC(=S)Nc2nc(-c3ccc(F)cc3)cs2)cc(OC)c1OC,-5,-3,-11,-6,5872,-6.7,17
C[C@]12CCC(O)CC1CCC1C2CC[C@]2(C)C(O)CCC12 (stereo not given in full),.,5,4,.,.,7.5,-2
CCOc1ccc(S(=O)(=O)N2CCC(c3ccccc3)CC2)cc1C(=O)O,-18,-8,2,-1,3667,-3.2,-1
CCOc1ccc(NC(=O)CN2C(=O)NC(CCc3ccccc3)C2=O)cc1OCC (stereo not given),-16,8,9,.,3664,-0.5,4
COCN(C#N)c1nc(OC)nc(OC)n1,-27,10,6,-2,10058,1.6,3
O=C(Nc1cccc(S(=O)(=O)N2CCCC2)c1)c1ccc2ccccc2n1,-27,16,6,3,4080,-4.2,5
CCC1(c2ccccc2)NC(=O)N(CC(=O)N2CCc3ccccc32)C1=O (stereo not given),-5,-20,7,.,8793,-0.9,-6
CC(C)N(c1ccccc1)c1ccc(NC(=S)NCCN(C)C)cc1,-9,10,9,4,4508,1.6,-5
Cc1ccccc1-n1nc2c(c1NC(=O)C(C)C)CS(=O)(=O)C2,-26,-7,-3,2,3550,2.0,2
CCN1CCN(c2ccc(S(=O)(=O)N3CCCCC3)cc2NC(=O)Cc2c(F)cccc2Cl)CC1,-7,10,-1,-4,4739,2.4,7
COc1cc(NC2c3ccccc3C(=O)N2Cc2ccccc2)cc(OC)c1OC (stereo not given),-17,6,5,-1,4363,3.9,12
O=C(CN(C(=O)CCC(=O)Nc1nccs1)c1ccc(F)cc1)NCC1CCCO1 (stereo not given),-14,.,.,10,4768,0.2,12
CC(Oc1ccc(Cl)cc1Cl)C(=O)NNC(=O)c1ccncc1 (stereo not given),-12,-9,-2,6,5528,2.9,1
CC(C)Cn1c(=O)c2ccccc2n2c(SCC(=O)N3c4ccccc4CC3C)nnc12 (stereo not given),-13,0,6,4,6977,7.5,12
S=C(NNC(=S)Nc1ccccc1)Nc1ccccc1,-25,12,19,1,3798,-0.3,-3
O=C(c1ccc2c(c1)OCCO2)N1CCN(Cc2ccccc2)CC1,-20,2,4,0,4122,5.2,1
O=C(O)COc1ccccc1/C=N/Nc1ccc(S(=O)(=O)Nc2ccc(Cl)cc2)cc1[N+](=O)[O-],0,.,.,5,3970,.,.
CN1CCN(CC(=O)Nc2ccc(Cl)cc2C(=O)c2ccccc2)CC1,-14,.,.,-3,2653,-6.4,12
COc1cc(C(=O)OCC(=O)N2CCOCC2)c([N+](=O)[O-])cc1OC,5,8,8,-3,4295,3.6,17
